# Source: PubChem BioAssay (several laboratories)
# Env fusion inh – blocks HIV Env-driven cell-cell fusion. inhibition, % at 12.3 µM. 1.1% of 360,000 active. HeLa-JRFL Env/CEM21 cell fusion, luciferase;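 active = mean replicate inhibition score of at least 50 and every replicate individually at or above 50; inconclusive = only one of the two criteria met; inactive = mean below 50 and not all replicates reaching 50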;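 also: 0% = plate neutral controls and 100% = maraviroc near 300 nM; one replicate is shown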
# PABP polyA inh – PABP-poly(A) binding inhibition | P11940 | PABP-poly(A) RNA binding, fluorescence polarization | inhibition, % at 35 µM | 1% of 290,000 active;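 active = 50% or more with normal probe brightness, or confirmed in later tests; inconclusive = above 50% with abnormal brightness, or retests that disagree; inactive = below 50% or failed in later tests; about a fifth of its hits are not listed in these tables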;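 also: calls also rest on retests at 20 µM and on dose response follow-up; controls were probe without protein and protein plus probe with vehicle; some compounds called inactive have numbers as strong as hits; many hits fall short of the cut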
# Target sequence (P11940 whole entry, looked up): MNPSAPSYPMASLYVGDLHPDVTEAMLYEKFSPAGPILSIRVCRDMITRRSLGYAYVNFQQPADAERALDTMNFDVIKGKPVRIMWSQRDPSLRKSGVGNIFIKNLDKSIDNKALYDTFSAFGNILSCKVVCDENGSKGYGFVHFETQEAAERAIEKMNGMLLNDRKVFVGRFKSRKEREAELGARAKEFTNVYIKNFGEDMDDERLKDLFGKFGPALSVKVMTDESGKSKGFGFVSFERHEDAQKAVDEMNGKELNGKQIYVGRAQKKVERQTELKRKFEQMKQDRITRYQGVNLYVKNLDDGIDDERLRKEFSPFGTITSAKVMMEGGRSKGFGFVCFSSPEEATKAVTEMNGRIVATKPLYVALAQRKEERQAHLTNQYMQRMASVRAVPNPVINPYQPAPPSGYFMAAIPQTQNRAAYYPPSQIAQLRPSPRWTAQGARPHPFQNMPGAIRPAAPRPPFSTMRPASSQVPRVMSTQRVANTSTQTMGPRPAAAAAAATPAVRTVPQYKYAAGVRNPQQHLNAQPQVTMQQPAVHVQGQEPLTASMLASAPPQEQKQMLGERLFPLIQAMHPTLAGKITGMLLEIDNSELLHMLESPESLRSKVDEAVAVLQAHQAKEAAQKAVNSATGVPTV
# Rce1 inhib – blocks yeast Ras-converting enzyme. calls only. yeast membranes, quenched prenylated peptide cleavage fluorescence. AID 2563. 0.27% of 290,000 active. Q03530;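 active = fall in fluorescence gain of 50% or more versus controls, with final raw signal at or below 3038400; inconclusive = same 50% fall but final raw signal above 3038400; inactive = fall in fluorescence gain under 50%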;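 also: plate controls were neutral control wells for no effect and wells lacking membranes for full effect; tested at 10 µM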
# Target sequence (Q03530 whole entry, looked up): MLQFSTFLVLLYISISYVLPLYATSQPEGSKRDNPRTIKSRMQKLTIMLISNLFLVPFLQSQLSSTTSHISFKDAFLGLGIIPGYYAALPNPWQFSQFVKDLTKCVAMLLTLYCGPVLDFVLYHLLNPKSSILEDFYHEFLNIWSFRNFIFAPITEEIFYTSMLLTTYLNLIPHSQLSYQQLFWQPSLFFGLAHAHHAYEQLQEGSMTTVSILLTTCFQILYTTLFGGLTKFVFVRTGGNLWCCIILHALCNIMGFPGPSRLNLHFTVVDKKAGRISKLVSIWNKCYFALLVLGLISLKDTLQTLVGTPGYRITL
# UUG fidelity – alters start codon recognition fidelity in yeast; S. cerevisiae UUG-firefly luciferase reporter, luminescence/redox ratio; activity score, % at 18.7 µM; 0.13% of 350,000 active; AID 602363;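 active = replicate mean at a twofold rise or more, about +100% in these data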;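 also: firefly luciferase made from a UUG start codon reports start codon fidelity; reporter light over untreated wells divided by growth signal over untreated wells; some hits fall short of that in this replicate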
# eIF4H inh – inhibitors of RNA binding by human eIF4H | Q15056 | eIF4H fluorescence polarization binding assay | inhibition, % at 35 µM | 0.94% of 290,000 active | AID 2012;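 active = 50% or more with normal probe brightness, or confirmed in later tests; inconclusive = above 50% with abnormal brightness, or retests that disagree; inactive = below 50% or failed in later tests; about a fifth of its hits are not listed in these tables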;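 also: calls also rest on retests at 20 µM and on dose response follow-up; 0% = protein and probe with vehicle and 100% = probe without protein; strong numbers were not always called active; many hits fall short of the cut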
# CSC inhib – cancer stem cell inhibition; cancer stem cell-like cells viability, luminescence; inhibition, % at 7.5 µM; 1.1% of 300,000 active;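 active = mean at 75% or more and at least half the replicates too; inconclusive = mean and replicates disagree; tested in HMLE shEcad cells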;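 also: 0% = median of negative and 100% = median of positive control wells; the first replicate is given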
# MT1-MMP act inh – MT1-MMP (human) activation inhibition; P50281; HT1080 RFP-PRO-GFP cells, GFP/RFP ratio fluorescence, overnight; percent of plate control window, DMSO zero; GFP/RFP ratio change, % at 20 µM; 0.061% of 360,000 active; AID 651647;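 active = GFP/RFP ratio change of at least 30% with cell ATP level not reduced by more than half and red fluorescence within 50% of control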; also: strong numbers were not always called active
#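 Assay system: HT1080 cells carrying an RFP-PRO-GFP reporter | Dosing: Single dose of 20 µM compound, 1% DMSO final | Incubation: Cells overnight before dosing, compound overnight, 37 °C, 5% CO2 | Evaluation: GFP/RFP fluorescence ratio | Control set: DMSO and RFP-L50D-GFP cell wells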
# eIF4H inh retest – recorded beside eIF4H inh, whose call it bears; inhibition, %; compound at 20 µM; confirmation average;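 mean of two retest wells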
# PABP polyA inh retest – also measured in PABP polyA inh; calls as there; inhibition, %; compound at 20 µM; confirmation repeats;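 mean of two retest wells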
# MT1-MMP act inh RFP – also measured in MT1-MMP act inh; calls as there; RFP signal change, %; measured here: RFP expression control read;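 0 = vehicle wells; hits needed this value within 50% of zero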
# * marks the source's active call; other numbers are inactive results; i = inactive; ? = inconclusive; nt = no result given; & = joins results of further samples; [ ] = another dose, or the depositor's remark. Rows were taken by chance, and some 3% of all compounds hit somewhere here.
SMILES,Env fusion inh,PABP polyA inh,Rce1 inhib,UUG fidelity,eIF4H inh,CSC inhib,MT1-MMP act inh,MT1-MMP act inh RFP,others
O=C(c1cccnc1)N1CCN(S(=O)(=O)c2ccc3ccccc3c2)CC1,16,-7,i,-1,-5,-26,9,-3,
Cc1ccc(N)cc1CN1CCCC1=O,nt,13,i,8,12,-24,4,4,
CCOC(=O)CN1C(=O)N(c2ccccc2OC)S(=O)(=O)c2ccccc21,3,3,i,-6,-1,4,-2,-1,
O=S(=O)(NCc1ccccc1)NCc1ccccc1,4,11,i,-21,1,-11,2,-1,
c1ccc(CNC2CC3CCC2C3)cc1 (stereo unspecified),5,nt,nt,-21,nt,nt,3,3,
CSCCC(NC(=O)c1ccc(Cl)cc1Cl)C(=O)NCc1ccccn1 (stereo unspecified),-14,11,i,-19,-10,nt,-3,-3,
NC(=O)CSc1nnc(-c2ccccn2)n1Cc1ccco1,11,55,i,-6,-7,13,0,-1,eIF4H inh retest=-3;PABP polyA inh retest=19
S=C(c1ccccc1)N1CCSCC1,-1,7,i,-18,-5,nt,1,0,
CC(C)(C)[C@@H]1C=C(C(=O)O)O[C@H](OCc2ccc(CO)cc2)C1,0[16.7 µM],2,i,0&-17,-7,-16,-1,0,
COc1ccc(N2CCN(c3cnc4ccccc4n3)CC2)cc1,-20,6,i,-5,2,6,2,-9,
COC(=O)c1cc2c(N)c(C(=O)c3ccc(Cl)cc3)sc2nc1C(OC)OC,20,15,i,nt,5,6,-8,-2,
CCN(Cc1ccc(NC(C)=O)cc1)CC1CCCN(CCc2cccc(OC)c2)C1 (stereo unspecified),3,16,i,-6,24,-1,6,5,
O=C1c2ccccc2NC(c2ccccc2O)N1NS(=O)(=O)c1ccccc1 (stereo unspecified),1,-11,i,nt,2,-6,4,5,
CCOC(=O)c1c(NC2=NS(=O)(=O)c3ccccc32)sc2c1CCCCC2,-11,6,i,nt,-9,-8,1,-2,
COC(=O)C(Cc1ccccc1)NC(=O)COc1ccc(C(C)(C)C)cc1 (stereo unspecified),nt,-2,i,-5,0,30,1,-7,
Cc1ccc(C)c(S(=O)(=O)N2CCN(CC(=O)NC(=O)NCc3ccco3)CC2)c1,1,6,i,nt,20,14,-4,-3,
COc1ccc(NC(C)=O)cc1NC(=O)CSc1nnc(-c2ccc(F)cc2)n1N,-39,6,i,-10,-1,0,4,3,
Cc1ccc(C(=O)Nc2nc(C)c(C)s2)o1,nt,-5,i,-40,-8,19,-7,-3,
Cc1nc(C)c(CCNC(=O)c2ccccc2Br)s1,nt,-8,i,-14,-4,-4,-5,2,
O=C(Cn1cc([N+](=O)[O-])ccc1=O)N1CCc2ccccc21,20,nt,nt,nt,nt,-3,-1,2,
Cc1ccc(CNc2oc(COc3ccccc3Cl)nc2C#N)cc1,nt,-10,i,0,-5,-9,1,-3,
Cc1nnsc1C(=O)NNS(=O)(=O)c1cc(C(F)(F)F)cc(C(F)(F)F)c1,-1,2,i,nt,2,21,1,0,
CCN(C(=O)CN1C(=O)NC(c2ccccc2)(c2ccc(C)c(C)c2)C1=O)C1CCS(=O)(=O)C1 (stereo unspecified),8,nt,nt,-2,nt,nt,2,3,
CC(=O)Nc1ccc(NC(=O)C(=O)c2cn(CC(=O)N3CCCC3)c3ccccc23)cc1,0,3,i,-13,12,-9,2,4,
COc1ccc(S(=O)(=O)Nc2cc(C(=O)NCCCN3CCOCC3)ccc2N2CCOCC2)cc1,10,7,i,nt,4,52,4,-1,

# The list continues:
SMILES,Env fusion inh,PABP polyA inh,Rce1 inhib,UUG fidelity,eIF4H inh,CSC inhib,MT1-MMP act inh,MT1-MMP act inh RFP,others
COc1ccc(S(=O)(=O)NC(Cc2cnc[nH]2)C(=O)O)cc1 (stereo unspecified),14,-5,i,1,-5,-8,5,7,
CCn1c(SCC(=O)Nc2nnc(C)s2)nnc1C(C)NC(=O)c1ccccc1F (stereo unspecified),-2,1,i,-3,-9,-7,3,2,
CNC(=O)COC(=O)COc1ccc2c(C)cc(=O)oc2c1,19,1,i,-17,4,-8,2,3,
COC(=O)c1ccccc1NC(=O)CN(c1ccc(C)cc1)S(C)(=O)=O,5,-4,i,-12,-1,-6,-2,-3,
Cc1ccc(N(C(=O)c2snc(C(N)=O)c2N)C(C(=O)NCCC(C)C)c2ccco2)cc1 (stereo unspecified),27,5,i,nt,6,-11,4,-2,
O=S(=O)(c1cccc(-c2csc(-c3ccccc3)n2)c1)N1CCOCC1,4,-1,nt,-14,-20,10,-3,-8,
CC(=O)Nc1ccc(S(=O)(=O)Nc2ccc(N3CCOCC3)c(F)c2)cc1,nt,-4,i,-16,-1,nt,2,-1,
COC(=O)C(C)SC1=N/C(=C/c2ccc(-n3cncn3)cc2)C(=O)N1 (stereo unspecified),25,-1,i,-29,-2,-2,-5,-10,
O=C(c1cncc(Br)c1)N1CCN(c2ccc([N+](=O)[O-])cc2)CC1,20,-7,i,nt,-3,8,3,-3,
CCc1cc2c(NC(Cc3c[nH]c4ccccc34)C(=O)O)nc(C)nc2s1 (stereo unspecified),5,86,i,nt,6,nt,0,5,eIF4H inh retest=-1;PABP polyA inh retest=-10
CCc1[nH]nc2c1C(C1C=CCCC1)C(C#N)=C(N)O2 (stereo unspecified),-24,-2,i,nt,9,-3,-6,-2,
COc1ccc2c(c1OC)c(=O)n1c3ccc(OC(C)C(=O)NCCN4CCOCC4)cc3c3ccnc2c31 (stereo unspecified),nt,5,i,-3,-2,-5,7,1,
Cc1ccc(S(=O)(=O)N2CCCC(c3nnc4n3-c3ccccc3SC4)C2)cc1 (stereo unspecified),nt,4,i,-13,-5,-5,-9,-5,
Cc1cccn2c(=O)c3cc(C(=O)NCc4ccco4)c(=N)n(C4CCCC4)c3nc12,-9,?,i,14,?,nt,0,1,
COC(=O)C1=C(C)N(CCCC(=O)O)C(=O)NC1c1ccccc1Cl (stereo unspecified),6,nt,i,-2,nt,-5,-3,1,
O=C1CC(C(F)(F)F)=NN1,3,9,nt,-6,-14,-8,-3,-4,
CC1CCN(S(=O)(=O)c2ccc(C(=O)OC(C)C(=O)NC3CCCCC3C)cc2)CC1 (stereo unspecified),12,24,i,4,1,-39,-2,-1,
O=C(NCCCn1ccnc1)C(=O)NCc1ccccc1,-43,-1,nt,nt,11,35,5,3,
CC(C)C(OC(=O)C1CCCO1)C(=O)NC1CCCC1 (stereo unspecified),-1,3,i,-20,-12,2,-1,0,
COc1ccccc1C(=O)N1CCN(CCc2ccccc2)CC1,9,-4,i,-20,-3,7,4,4,
COc1ccc(C(=O)N2CC3(CC(c4cccc(NC(=O)CC(c5ccccc5)c5ccccc5)c4)=NO3)C[C@H]2C(N)=O)cc1 (stereo partly specified),-1,11,i,-26,-6,17,4,-2,
CC[C@@H]1C=C(C(=O)O)[C@H](c2ccc(C#N)cc2)N1S(=O)(=O)c1ccc(C)cc1,15,nt,nt,-5,nt,nt,8,8,
COc1ccc(NC(=O)CN2C(=O)C3CC=CCC3C2=O)cc1Cl (stereo unspecified),?,nt,nt,-9,nt,nt,-1,4,
O=C(c1ccc(Br)c(S(=O)(=O)N2CCOCC2)c1)N1CCN(C/C=C/c2ccccc2)CC1,1,nt,nt,-3,nt,nt,-5,-16,
CCOc1ccccc1C(=O)NC1CC2CCCC(C1)N2Cc1nnnn1Cc1ccco1 (stereo unspecified),-12,-5,i,-19,-1,3,2,-2,

# Among those listed so far, 2 have a tert-butyl group:
SMILES,Env fusion inh,PABP polyA inh,Rce1 inhib,UUG fidelity,eIF4H inh,CSC inhib,MT1-MMP act inh,MT1-MMP act inh RFP,others
CC(C)(C)[C@@H]1C=C(C(=O)O)O[C@H](OCc2ccc(CO)cc2)C1,0[16.7 µM],2,i,0&-17,-7,-16,-1,0,
COC(=O)C(Cc1ccccc1)NC(=O)COc1ccc(C(C)(C)C)cc1 (stereo unspecified),nt,-2,i,-5,0,30,1,-7,

# Later entries.
SMILES,Env fusion inh,PABP polyA inh,Rce1 inhib,UUG fidelity,eIF4H inh,CSC inhib,MT1-MMP act inh,MT1-MMP act inh RFP,others
COC(=O)C(CC(C)C)NC(=O)CSc1nc(-c2ccccc2)c(C#N)c(=O)[nH]1 (stereo unspecified),36,-2,i,-16,-10,-17,-1,0,
CCC(=O)NC(c1cccs1)c1cc(Cl)c2ccccc2c1O (stereo unspecified),29,nt,nt,-3,nt,8,-19,7,
COc1ccc(/C=N/Nc2cc(C)nc3ccccc23)cc1,2,-2,i,-12,-4,32,11,-3,
Cc1ccsc1C(=O)OC1CCOC1=O (stereo unspecified),-10,-4,i,-12,-6,9,-4,2,
CC(=O)NC(c1ccc(F)c(F)c1)c1nc(-c2cc3ccccc3o2)cs1 (stereo unspecified),13,nt,nt,-6,nt,nt,2,1,
CC(=O)NC(CC(=O)N(C)Cc1c(F)cccc1Cl)c1ccccc1 (stereo unspecified),-4,0,i,-1,-1,-4,0,2,
CCNC(=O)C1CCCN(C(=O)c2ccc3snnc3c2)CC1 (stereo unspecified),-6,nt,nt,-15,nt,nt,8,7,
Cc1ccc(N=C2NC(=O)c3cccc([N+](=O)[O-])c32)cc1,-67,-20,i,nt,-6,-2,3,0,
CCOC(=O)C1=C(CS(=O)(=O)c2ccc(Cl)cc2)NC(=O)NC1c1ccc(O)c(OC)c1 (stereo unspecified),1,9,i,-4,12,-16,-3,1,
C[C@H](CO)N1C[C@H](C)[C@@H](CN(C)S(C)(=O)=O)Oc2c(NC(=O)Nc3ccccc3)cccc2C1=O,-1,nt,nt,-8&-11,nt,nt,4,6,
Nc1cc(-c2ccccc2)nn1Cc1ccc(Cl)cc1,nt,0,i,nt,-10,-7,-4,-18,
Cn1cc(-c2cccc(Cl)c2)cc(C#N)c1=O,-13,21,i,nt,-3,-10,4,3,
O=S(=O)(c1ccc(N2CCCCCC2)nc1)N1CCCC1,-17,4,i,nt,-6,-10,0,1,
O=C(CSCc1ccccc1)Nc1cccc(C(=O)Nc2ccccc2C(=O)O)c1,8,4,i,-3,-1,nt,5,7,
CCOC(=O)c1c(C)nsc1NCc1ccccc1,27,nt,i,nt,nt,34,-2,-4,
CC(C)(C)c1ccc(-n2ncc3c2CCCC3NC(=O)c2ccncc2)cc1 (stereo unspecified),23,-5,i,-10,-6,-7,-3,-29,
Cc1[nH]c2ccccc2c1/C=N\NC(=O)c1ccccc1Cl,70*,nt,nt,-15,nt,nt,1,0,
CCOC1=NN(c2ncc(C(F)(F)F)cc2Cl)C(=O)/C1=C/N(C)C,3,-16,i,-22,11,-5,-3,0,
CCCNC(=O)c1cc(C2CCCCN2C(=O)c2ccc(C#N)cc2)on1 (stereo unspecified),7,nt,nt,-7,nt,nt,-2,2,
CCOc1ccc(-c2nnc(N)s2)cc1,nt,6,i,-25,7,-2,4,6,
O=C(Nc1cccc(O)c1)c1ccc(NC(=O)c2cccs2)cc1,-20,-8,i,-22,-2,72,6,-2,
O=C(CSCc1ccc([N+](=O)[O-])cc1)NC1CC1,-4,-6,i,nt,-4,3,1,1,
O=C(Cn1c(=O)oc2ccccc21)NC(=O)NCc1ccco1,4,-3,i,3,1,-3,-4,0,
CCCOc1ncnc2c1[nH]c1ccc(C)cc12,nt,-5,nt,nt,-17,4,nt,nt,
